GIV-Gai inh – inhibitors of GIV GBA-motif binding to rat Galpha-i3 | P08753 | Galpha-i3/FITC-GIV peptide fluorescence polarization, 90 min; stronger effect = lower value; scaled: aluminum fluoride 0%, vehicle 100% | percent of control (FP), % (test concentration not listed) | actives 0.42% (n = 210,000) | AID 1224905;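 active = replicate mean at 85% of control or lower, very high polarization wells dropped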;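 also: wells of about 15 µL received 100 nL stock; the first replicate is given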
Target sequence (P08753 whole entry, looked up): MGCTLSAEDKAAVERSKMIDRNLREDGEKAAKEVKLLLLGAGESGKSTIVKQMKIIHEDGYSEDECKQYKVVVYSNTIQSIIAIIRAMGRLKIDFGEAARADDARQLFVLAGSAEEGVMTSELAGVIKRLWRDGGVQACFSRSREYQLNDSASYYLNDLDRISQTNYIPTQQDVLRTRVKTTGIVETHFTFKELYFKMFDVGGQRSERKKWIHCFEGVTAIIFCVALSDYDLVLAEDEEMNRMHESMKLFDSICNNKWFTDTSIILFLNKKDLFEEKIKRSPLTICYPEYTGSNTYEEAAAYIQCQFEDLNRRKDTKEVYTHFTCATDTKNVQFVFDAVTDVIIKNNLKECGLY
Sa growth 42C – inhibitors of Staphylococcus aureus growth at 42 °C | S. aureus RN4220 growth, OD600, 20 h; stronger effect = lower value | relative growth, % (no concentration beside the values) | actives 0.53% (n = 170,000) | AID 720641;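 active = growth at 42 °C up to 50% and 20 or more points under that at 30 °C, or under 10% at both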;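 also: 300 nL library stock went into each well; scaled to the means of positive and negative controls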
HCMV NEC inh – disrupts HCMV UL50-UL53 complex binding. HTRF UL50-UL53 interaction, normalized percent inhibition. inhibition, % (test concentration not listed). actives 0.15% (n = 190,000);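 active = both replicates at 50% or more, plus weaker picks with an unusually low signal ratio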;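 also: stock transfer was 100 nL into about 20 µL; 0% = negative control wells and 100% = wells with untagged competitor protein; inactives centre near -12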
Sa growth 42C second temp – second read-out of Sa growth 42C, no call of its own (marks repeat the call); relative growth, %; measured here: growth at 30 °C;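 optical density after 20 h as mean of two plates; 100% = untreated growth and lower means inhibition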
Starred values were filed as active, the others as inactive; i = inactive; . = not tested or not shown; & = joins results of further samples.

Results follow in this order: GIV-Gai inh	Sa growth 42C	Sa growth 42C second temp	HCMV NEC inh
1	CC1CCN(S(=O)(=O)c2ccc3[nH]cc(C(=O)NCc4ccccc4Cl)c(=O)c3c2)CC1
  99.8	122.3	91.7	.
2	C=CCSC1=C(C#N)C(c2ccccc2OCC)C(C#N)C(=O)N1 (stereo not drawn)
  .	93.7	76.5	-25.6
3	Cc1cn2c(=O)cc(COc3cccc(NC(=O)c4ccccc4C)c3)nc2s1
  101.1	98.4	89.2	2.5
4	CCOC(=O)C1CCN(C(c2ccccc2)c2c(O)cc(C)n(Cc3ccco3)c2=O)CC1 (stereo not drawn)
  100.3	102.0	90.0	.
5	Cc1nnc(SCC(=O)N(C)CC(=O)Nc2ccc(F)cc2)n1Cc1ccccc1
  .	91.6	99.1	2.6
6	CC(C)OC(=O)c1cccc(NC(=O)c2ccc(Br)cc2)c1
  104.9	106.5	87.6	.
7	O=C(Cn1nc(-c2ccc(Cl)cc2)c2ccccc2c1=O)Nc1cccc(Br)c1
  98.1	104.8	90.6	-12.8
8	CN(C)C(=O)COC(=O)c1cccc(S(=O)(=O)N2CCN(c3ccccc3)CC2)c1
  .	73.5	95.6	-27.8
9	CC(=O)N1CCN(C(=O)c2c(Cl)nc3sccn23)CC1
  .	101.0	97.5	-10.5
10	O=C(Nc1ccc2c(c1)OCO2)c1ccc(Nc2ccc(-c3cccc(F)c3)nn2)cc1
  106.6	.	.	-3.2
11	COC(=O)COc1ccc(/C=C2\C(=O)NC(=O)N(c3ccc(C)cc3)C2=O)cc1OC
  115.4	.	.	7.7
12	Cc1ccc2nc(N3CCN(C(=O)C4COc5ccccc5O4)CC3)sc2c1 (stereo not drawn)
  107.4	113.9	95.5	.
13	OC1(c2ccccc2)CN(c2ccccc2)C2=[N+]1CCCC2 (stereo not drawn)
  99.0	104.5	89.8	-22.7
14	CC(C)(C)C(=O)/C(C#N)=C/Nc1cccc2nsnc12
  112.7	96.6	87.0	i
15	CCCn1cnc2nc(CSc3ccccc3NC(=O)c3ccc(C)cc3)cc(=O)n21
  103.0	.	.	-21.7
16	COc1ccc(NC(=O)CN(C)S(=O)(=O)c2ccc3[nH]c4c(c3c2)CCCC4)cc1OC
  105.7	90.0	86.9	.
17	CCN(C(=O)c1cc2c(=O)[nH]c3ccc(C)cc3c2s1)c1ccccc1
  108.1	98.5	93.8	.
18	N#CCCS(=O)(=O)c1ccc2[nH]c(=O)c(=O)[nH]c2c1
  106.7	85.9	96.5	-1.5
19	CCC(C)NC(=O)C1CCN(S(=O)(=O)c2ccc3nc4c(c(C(=O)O)c3c2)CCCC4)CC1 (stereo not drawn)
  105.4	104.1	89.2	.
20	Cn1c(=O)cc(OCCCC(=O)NCC2(c3ccccc3)CCCC2)c2ccccc21
  105.0	91.7	73.4	.
21	O=C(CSc1nc2ccccc2n2cnnc12)NC1CCCCC1
  106.8	.	.	-19.2
22	CCOc1ccc(NC(=O)c2ccc(-n3cnnc3)cc2)cc1
  108.4	91.5	96.6	21.1
23	NCCCN1Cc2ccccc2C1
  102.9	97.6	88.3	-3.3
24	O=S(=O)(c1ccccc1)N1CCN(C(=S)NCc2ccccc2)CC1
  .	129.1	101.2	6.3
25	Cn1c2ccccc2c2cnn(CC(=O)NC3CCCC3)c(=O)c21
  105.1	95.5	76.0	-8.0
26	Cc1ccccc1OCC(=O)OCc1cc(=O)n2nc(-c3cccs3)sc2n1
  102.9	87.8	81.3	.
27	COCCN1Cc2cccc(C(=O)Nc3ccc(C(C)C)cc3)c2C1=O
  97.8	92.0	89.9	-1.8
28	O=C(c1ccco1)N1CCN(C(=O)C2CCCc3c2[nH]c2ccc(Cl)cc32)CC1 (stereo not drawn)
  104.4	127.3	70.6	.
29	O=C(N/C(=C\c1ccc(O)cc1)C(=O)N1CCCCC1)c1ccccc1
  103.6	86.8	80.6	-17.0
30	O=C(NCc1ccccc1Cl)c1cc2c(s1)-c1ccc(Cl)cc1SC2
  101.0	102.3	76.3	-20.4
31	Cc1oc2ccc(OCc3ccc(Cl)cc3)cc2c1C(=O)O
  110.2	82.7	64.5	-2.9
32	O=C(OCC(=O)N1CCC(Cc2ccccc2)CC1)c1n[nH]c2ccccc12
  .	77.9	67.3	-15.9
33	CCC1Oc2nc(SC)nnc2-c2ccccc2N1C(=O)c1ccccc1 (stereo not drawn)
  105.7	92.5	91.3	-59.1
34	COc1cc2cc(OCc3c(F)cccc3Cl)nc(C)c2cc1OC
  98.6	90.8	87.9	-21.6
35	COc1ccccc1NC(=O)C1=C(C)Nc2ncnn2C1c1sccc1C (stereo not drawn)
  97.9	74.9	88.9	.
36	O=C(CCN1C(=O)C2C3C=CC(C3)C2C1=O)Nc1cccnc1 (stereo not drawn)
  106.4	108.9	89.6	-2.3
37	Cc1ccc(NC(=O)CC2COc3ccccc3O2)cc1C (stereo not drawn)
  .	86.4	103.2	-0.1
38	COc1ccc(CNC(=O)CCS(=O)(=O)c2ccc3c(c2)oc(=O)n3C)cc1
  104.9	90.8	83.5	.
39	CCn1c(=O)c(N2CCCC(C(=O)NCCc3c[nH]c4ccc(C)cc34)C2)nc2ccccc21 (stereo not drawn)
  103.4	.	.	-29.6
40	Cc1ccccc1CNC(=O)C(=O)NCC(c1ccco1)S(=O)(=O)c1cccs1 (stereo not drawn)
  96.6	100.9	86.8	.
41	O=c1[nH]c(=S)sc2ccccc12
  98.0	88.1	79.9	-1.6
42	CCC(CC)NCc1oc2ccc(Cl)cc2c1-c1ccc(OC)cc1
  97.5	87.4	70.2	.
43	CCOC(=O)c1cc2ccc(OC(=O)c3ccco3)cc2oc1=O
  97.6	112.4	100.7	-71.1
44	COc1ccc(C2CC(C(F)(F)F)n3nc(C(=O)Nc4cccnc4Cl)c(Cl)c3N2)cc1OC (stereo not drawn)
  90.6	.	.	-25.3
45	O=S(=O)(Nc1ccc(-c2ccc(N3CCCC3)nn2)cc1)c1ccccc1F
  103.4	.	.	-25.9
46	CC(C)(C)c1cn2ccc3ccccc3c2n1
  100.7	94.5	81.8	5.2
47	O=C(O)c1cc2ccc3ccccc3c2s1
  104.6	84.2	92.6	5.6
48	COC(=O)c1c(-c2ccc(Cl)cc2)noc1N1CCN(c2cccc(C(F)(F)F)c2)CC1
  103.2	94.5	85.4	.
49	O=C(NCc1noc2ccccc12)N1CCc2ccccc21
  102.9	80.5	76.5	.
50	Cc1ccc2c(CC(=O)Nc3ccc(S(=O)(=O)N4CCC(C)CC4)cc3)coc2c1
  107.4	100.3	90.9	-7.1

Next part:
Results follow in this order: GIV-Gai inh	Sa growth 42C	Sa growth 42C second temp	HCMV NEC inh
51	O=c1[nH]nc(SCc2ccccc2)c(=O)[nH]1
  98.6	79.4	74.9	-21.1
52	O=C(Nc1ccccc1C(=O)Nc1ccc(F)cc1)c1ccco1
  100.7	94.7	87.6	.
53	CCc1cc2c(cc3c(=O)n(CC(=O)N4CCCCC4)nc(CC)n32)s1
  102.2	112.1	88.8	-41.8
54	COc1ccc(N2CCN(CCCNC(=O)/C=C3\Sc4ccccc4NC3=O)CC2)cc1
  99.5	100.3	96.3	-0.5
55	COCCCn1nnnc1SCC(=O)Nc1ccccc1
  100.4	105.9	87.4	1.8
56	Cc1cnc(NC(=O)C2CCCC2)s1
  .	110.0	87.6	-37.6
57	CC(=O)Nc1ccc(N2CCN(C(C)=O)CC2)cc1
  105.0	83.0	81.0	-23.8
58	Cn1c(=O)n(C)c2cc(N3CCOCC3)c(NC(=O)c3ccc(C(C)(C)C)cc3)cc21
  101.0	107.7	91.5	-12.5
59	COc1ccc(C)cc1NC(=O)CC1NCCNC1=O (stereo not drawn)
  98.3	102.8	85.0	6.6
60	Cc1ccc(N2Cc3ccccc3C2)cc1C
  111.4	90.7	70.1	-19.8
61	O=C1CCS(=O)(=O)N1c1ccc(S(=O)(=O)N2CCOCC2)cc1
  108.9	.	.	-36.7
62	COc1ccc(NC(=O)c2ccccc2C(=O)N2CCCCC2)cc1
  102.3	90.7	80.7	-19.5
63	CCOC(=O)c1c(C)[nH]c(C(=O)N2CCCC(C(=O)N3CCCCC3)C2)c1C (stereo not drawn)
  101.0	.	.	19.9
64	C=CCSc1nccc(-c2sc3ccc(Cl)cc3c2C)n1
  98.1	101.1	86.1	-20.9
65	CCOc1ccccc1NC(=O)Nc1ccccc1OCc1cc(=O)n2ccccc2n1
  103.5	87.6	87.5	.
66	O/N=C/c1ccccc1C(F)(F)F
  .	84.7	98.9	-1.4
67	CCOC(=O)c1cnc(-c2ccccc2)[nH]c1=O
  105.5	96.8	88.0	-34.5
68	O=C(O)C(Cc1ccccc1)NC(=O)C(c1ccccc1)c1ccccc1 (stereo not drawn)
  .	125.6	99.3	-23.9
69	COc1ccc(-c2cn3c4c(=O)n(C)c(=O)n(C)c4nc3n2CCCO)cc1
  97.8	102.7	86.8	3.2
70	CCOC(=O)Cn1c2ccc(Br)cc2c2nc3ccccc3nc21
  104.7	.	.	-5.4
71	O=c1ncn(Cc2cccs2)cc1-c1ccccc1
  99.2	80.9	87.2	-13.3
72	CNC(=O)CN1CCCC(c2nc3ccccc3[nH]2)C1 (stereo not drawn)
  102.7	88.3	92.1	-34.1
73	Cc1ccc(C(=O)c2sc(Nc3ccc(F)cc3)c(C#N)c2N)cc1
  106.1	110.3	101.2	-38.2
74	COC(=O)c1ccc(-c2ccco2)n1CC(=O)N1CCC(C(N)=O)CC1
  107.6	99.8	91.4	-4.6
75	N#CC(C#N)=C1CCN(c2ncc(C(F)(F)F)cc2Cl)CC1
  143.7	.	.	-9.4
76	CCOC(=O)c1cn(S(=O)(=O)c2ccc(F)cc2F)nc1C(F)(F)F
  103.0	103.6	75.7	-13.3
77	O=S(=O)(NCCn1c(-c2ccc(F)cc2)nc2cccnc21)c1ccc(F)cc1
  110.1	.	.	-4.8
78	Cc1cccc(S(=O)(=O)NCC(c2ccc(N(C)C)cc2)N(C)C)c1 (stereo not drawn)
  96.2	.	.	-21.2
79	Cc1ccc(-c2nnc(Nc3ccc(O)cc3)c3ccccc23)cc1S(=O)(=O)N(C)C
  99.6	108.1	89.4	.
80	CC(=O)N1CCC(c2nc(-c3ccc(C(F)(F)F)cc3)no2)CC1
  101.6	96.4	86.9	-14.8
81	CCc1ccccc1NC(=O)c1nc(-c2ccncc2)no1
  103.0	112.5	91.1	-4.6
82	O=C1NCCc2c1[nH]c1ccc(OCc3ccccc3)cc21
  101.9	.	.	-9.2
83	CC1(C)CC2CC(C)(CN2c2nc(N)c(C#N)c(CC#N)c2C#N)C1 (stereo not drawn)
  .	119.2	65.4	-8.8
84	Cc1cccc2c1cnn2C(=O)Nc1cc(F)ccc1F
  104.3	86.5	84.3	-20.3
85	CCOc1ccccc1CNC(=O)Cn1ncc2c([nH]c3ccccc32)c1=O
  105.0	97.0	95.3	-32.8
86	CC(=O)Nc1ccccc1-c1nc2ccccc2n(CC(=O)c2ccc(Br)cc2)c1=O
  98.6&98.2	95.0	94.1	0.5&-6.4
87	O=C(Cn1cc(C(=O)C2CCCCC2)c2ccccc21)Nc1ccccc1Cl
  102.0	82.6	82.6	-24.0
88	OC(CNCc1ccccc1)C12CC3CC(CC(C3)C1)C2 (stereo not drawn)
  98.9	93.5	97.6	.
89	COC(=O)c1sc(NC(=O)Cn2cnc3sccc3c2=O)c(C(=O)OC)c1C
  .	76.1	93.4	-5.8
90	Cc1nc2c(C(=O)N(C)Cc3ccco3)c[nH]n2c(=O)c1Cc1ccccc1F
  109.4	88.0	102.7	-9.9
